# Compound activity deposited in PubChem by National Center for Advancing Translational Sciences (NCATS).
# VACV mCherry inh: qHTS for Stage-Specific Inhibitors of Vaccinia Orthopoxvirus: mCherry Reporter Primary qHTS | Vaccinia virus mCherry reporter infection, fluorescence; about a quarter of the inactives have no number | AID 720579, 2013 | 310,000 tested, 0.63% active | Potency, µM (doses to about 36.5 µM), inactives show top-dose activity change, negative = inhibition, usual class: inhibitors; active = well fitted inhibition curve with a large enough effect; inconclusive = small, poorly fitted or top-dose-only effect; inactive = no such curve, though single readings can be large or run the other way; tested in A549 cells; further: nearly all actives have a fitted effect of over 35% in size; inactives centre near -10
# Vaccinia Venus: qHTS for Stage-Specific Inhibitors of Vaccinia Orthopoxvirus: Venus Reporter Primary qHTS | Vaccinia virus Venus reporter expression, fluorescence | Potency, µM (titrated, usually from 36.5 µM), for inactives: at the highest dose activity change, negative = inhibition, usual class: inhibitors | 330,000 tested, 0.46% active | AID 720580, 2013; active means well fitted inhibition curve with a large enough effect; inconclusive means small, poorly fitted or top-dose-only effect; inactive means no such curve, though single readings can be large or run the other way; tested in A549 cells; further: nearly all actives have a fitted effect of over 30% in size; inactives centre near -10
# The depositor's hits bear a star; i = inactive; [ ] = another dose, or the depositor's remark. On the % scale 0 is the no-effect control and ±100 the full control effect; potency means the concentration at half of the fitted maximal effect. An unsorted share of the library, and some 0.87% of all compounds hit somewhere here.
O=C(c1ccc(CS(=O)c2ccc(F)cc2)o1)N1CCN(C2CCCCC2)CC1 (stereo not given)
  VACV mCherry inh: i | Vaccinia Venus: -16%

CCN(c1ccccc1)S(=O)(=O)c1ccc(Cl)c(C(=O)NCCc2ccc(OC)cc2)c1
  VACV mCherry inh: -15% | Vaccinia Venus: -13%

COc1cc(C(=O)Nc2ccc(S(=O)(=O)Nc3nccc(C)n3)cc2)cc(OC)c1OC
  VACV mCherry inh: i | Vaccinia Venus: -2%

COc1ccc(C(C)(C)C)cc1NS(=O)(=O)c1cccc2cccnc12
  VACV mCherry inh: -11% | Vaccinia Venus: -15%

Cc1nc2ccccc2c(=O)n1-c1ccc(F)cc1F
  VACV mCherry inh: -10%[7.34 µM] | Vaccinia Venus: -11%[7.34 µM]

O=C(C1CCN(C2CCN(Cc3ccc4c(c3)CCO4)CC2)CC1)N1CCCC1
  VACV mCherry inh: -12% | Vaccinia Venus: -16%

COc1cc(C)ccc1OCCOCCOc1cccc2ccc(C)nc12
  VACV mCherry inh: -6% | Vaccinia Venus: -6%

COc1ccc(NC(=O)C(=O)N2N=C(C(C)C)CC2(O)C(F)(F)F)cc1 (stereo not given)
  VACV mCherry inh: -7% | Vaccinia Venus: -2%

CCOc1ccc(C(=O)NCC(=O)NCC(c2ccco2)N2CCCCC2)cc1OCC (stereo not given)
  VACV mCherry inh: -7% | Vaccinia Venus: -24%

C#CCN(Cc1ccco1)C(=O)c1ccc(OC2CCN(Cc3ccccn3)CC2)cc1
  VACV mCherry inh: -9% | Vaccinia Venus: -13%

COc1ccccc1NC(=O)c1sc2cccc(Cl)c2c1Cl
  VACV mCherry inh: -3% | Vaccinia Venus: -1%

COCCNC(=O)c1ccc2c(c1)CCN2S(C)(=O)=O
  VACV mCherry inh: i | Vaccinia Venus: -8%

COc1ccc(-n2cc(-c3ccc(Br)cc3)[nH]c2=S)cc1
  VACV mCherry inh: -2% | Vaccinia Venus: -14%

# Single entries from the list:
# Under Vaccinia Venus, `O=C(C1CCN(C2CCN(Cc3ccc4c(c3)CCO4)CC2)CC1)N1CCCC1` reads -16%
# Under VACV mCherry inh, `COc1ccccc1NC(=O)c1sc2cccc(Cl)c2c1Cl` reads -3%
# Under VACV mCherry inh, `COc1cc(C)ccc1OCCOCCOc1cccc2ccc(C)nc12` reads -6%
# Under Vaccinia Venus, `CCOc1ccc(C(=O)NCC(=O)NCC(c2ccco2)N2CCCCC2)cc1OCC` (stereo not given) reads -24%

# Part of the list above in order of heavy-atom count, smallest number first.
Cc1nc2ccccc2c(=O)n1-c1ccc(F)cc1F
  VACV mCherry inh: -10%[7.34 µM] | Vaccinia Venus: -11%[7.34 µM]

COc1ccc(-n2cc(-c3ccc(Br)cc3)[nH]c2=S)cc1
  VACV mCherry inh: -2% | Vaccinia Venus: -14%

COc1ccccc1NC(=O)c1sc2cccc(Cl)c2c1Cl
  VACV mCherry inh: -3% | Vaccinia Venus: -1%

COc1ccc(NC(=O)C(=O)N2N=C(C(C)C)CC2(O)C(F)(F)F)cc1 (stereo not given)
  VACV mCherry inh: -7% | Vaccinia Venus: -2%

O=C(C1CCN(C2CCN(Cc3ccc4c(c3)CCO4)CC2)CC1)N1CCCC1
  VACV mCherry inh: -12% | Vaccinia Venus: -16%

CCOc1ccc(C(=O)NCC(=O)NCC(c2ccco2)N2CCCCC2)cc1OCC (stereo not given)
  VACV mCherry inh: -7% | Vaccinia Venus: -24%
